Source: PubChem
A1 inh – inhibitors of the anti-apoptotic protein A1, read as caspase activation. MEF A1-2A-BIM cells, Caspase-Glo 3/7 luminescence, 3 h; percent of clofoctol response, vehicle zero. caspase activation, % (concentration not given with the values). 330,000 compounds, 0.066% hits. AID 2462;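 active = over half of replicate activation scores above 10%, or exactly half above 10 with the replicate mean above 10; inconclusive = replicate mean below 10 yet half the replicates above 10; inactive = over half of replicates below 10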;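 note: wells of about 30 µL received 50 nL stock; many hits fall short of the cut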
Ecoli growth – inhibitors of Escherichia coli growth; OD600, 23 h; hits give low values; 330,000 compounds, 0.21% hits; OD600 absorbance (test concentration not listed);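 active = OD600 absorbance below the run mean of sample wells minus 3.6 SD, in any replicate, cut at about 0.56 in these data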;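 note: stock transfer was 300 nL into about 60 µL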
HNF4A DNA FP – change in binding of human HNF4 alpha to DNA. P41235. HNF4a-FITC DNA binding, fluorescence polarization, 1 h. activity change, % at 10 µM. 360,000 compounds, 0.3% hits. AID 1224865; in the data active = activity change above about 30%, passing the limit was not always enough;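 note: controls were the assay level and a saturating level of protein; the project sought stronger binding though the title names inhibitors; some compounds called inactive have numbers as strong as hits; positive values seem to mean higher polarization but the record does not say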
Target sequence (P41235 whole entry, looked up): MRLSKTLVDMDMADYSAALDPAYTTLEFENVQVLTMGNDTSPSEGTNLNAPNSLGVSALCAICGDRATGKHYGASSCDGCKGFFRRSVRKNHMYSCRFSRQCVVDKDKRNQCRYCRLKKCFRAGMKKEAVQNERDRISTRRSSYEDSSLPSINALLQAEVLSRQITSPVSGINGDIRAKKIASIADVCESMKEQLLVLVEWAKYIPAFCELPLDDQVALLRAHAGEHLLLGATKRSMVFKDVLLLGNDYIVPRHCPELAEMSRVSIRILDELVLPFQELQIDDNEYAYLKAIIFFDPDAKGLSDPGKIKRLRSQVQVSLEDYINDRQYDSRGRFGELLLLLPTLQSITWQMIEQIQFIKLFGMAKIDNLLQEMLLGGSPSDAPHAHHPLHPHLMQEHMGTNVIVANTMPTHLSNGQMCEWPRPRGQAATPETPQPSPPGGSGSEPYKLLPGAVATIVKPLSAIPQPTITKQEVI
UCH37 inh – inhibitors of human deubiquitinating enzyme UCH37 | inhibition, % (no concentration beside the values) | 330,000 compounds, 0.33% hits | AID 588478 | Q9Y5K5 | purified proteasome/UCH37, Ub-AMC cleavage fluorescence;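 active = mean of two replicates above 20%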;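 note: 0% = compound-free wells with enzyme and 100% = wells lacking proteasome; stock transfer was 100 nL into about 20 µL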
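Schedule: 30 min plus 25 min, room temperature / Material: human UCH37 within purified proteasomes / Technique: AMC fluorescence intensity at 355/460 nm / Buffer or medium: pH 7.4 Tris-HCl (50 mM) with ovalbumin, ATP-MgCl2, DTT / Controls: wells without proteasome as full block, compound-free enzyme plus substrate as uninhibited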
B2AR ag – agonists of human beta-2 adrenergic receptor inducing internalization. 340,000 compounds, 0.43% hits. AID 504454. Am2.2-beta2AR cells, FAP receptor internalization, flow cytometry; reference of the scale not given here. response, % (test concentration not listed). P07550;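 active = response above a set limit, near 3 SD of response in nonfluorescent compounds, cut at about 42% in these data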;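 note: stock transfer was 100 nL into about 11 µL; a reference agonist was the positive control; negative values mostly stem from fluorescent compounds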
Target sequence (P07550 whole entry, looked up): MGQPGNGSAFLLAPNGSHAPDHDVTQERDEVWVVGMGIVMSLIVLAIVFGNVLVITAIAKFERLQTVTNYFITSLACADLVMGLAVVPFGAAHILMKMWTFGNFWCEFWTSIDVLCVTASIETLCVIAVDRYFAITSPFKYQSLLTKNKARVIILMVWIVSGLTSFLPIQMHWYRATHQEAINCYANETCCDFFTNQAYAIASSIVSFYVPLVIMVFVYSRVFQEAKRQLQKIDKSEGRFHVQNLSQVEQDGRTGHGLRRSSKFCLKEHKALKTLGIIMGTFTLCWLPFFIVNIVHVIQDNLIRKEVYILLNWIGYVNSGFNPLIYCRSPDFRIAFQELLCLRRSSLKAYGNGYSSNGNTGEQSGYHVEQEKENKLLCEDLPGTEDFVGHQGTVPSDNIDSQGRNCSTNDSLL
Vif TR-FRET – inhibitors of Vif binding to APOBEC3G peptide, primary screen, biochemical, TR-FRET, GST-Vif 1-94, biotin-A3G peptide, dose response retest (AID 1117319); TR-FRET GST-Vif / biotin-A3G peptide binding; higher % means a stronger effect; test concentration not given here; strong numbers were not always called active; inhibition, %; hits with a dose series show IC50 in µM; 260,000 compounds, 0.57% hits;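 active = above the screen mean plus three standard deviations and confirmed in dose response; inconclusive = results disagree or hit not tested in dose response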;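 note: Vif residues 1-94 fused to GST binding biotinylated APOBEC3G peptide 110-148; 0% = full assay without inhibitor and 100% = GST in place of GST-Vif; retest series ran down from 100 µM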
LANA-H2A inh – blocks KSHV LANA binding to histone H2A/H2B; 320,000 compounds, 0.6% hits; cell-free LANA-H2A/H2B peptide, fluorescence polarization; inhibition, % (concentration not given with the values); in the data active = inhibition mostly above about 10%, no sharp cut-off; inactive = mostly below about 6.7%;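 note: stock transfer was 7.5 nL into about 10 µL; 0% = median of vehicle wells and 100% = median of positive control wells; one replicate is shown; the record names a cut of 25% in any replicate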
Starred values were filed as active, the others as inactive; ? = inconclusive; / = not tested or not shown; & = joins results of further samples.

SMILES	A1 inh	Ecoli growth	HNF4A DNA FP	UCH37 inh	B2AR ag	Vif TR-FRET	LANA-H2A inh
COc1ccc(-c2nnn(Cc3ccccc3)n2)cc1	-0.1	0.67	-2.8	4.2	-0.6	/	-1.9
CN(C)c1cc(-c2ccc(Cl)c(Cl)c2)oc(=O)c1Cl	-4.8	0.636	6.2	-4.3	5.2	-8.9%	2.7
O=[n+]1c2c(n([O-])c3c1CCCC3)CCCCC2	0.8	0.746	-0.2	3.4	5.5	6.1%	-0.4
CCn1c(=O)c(=O)[nH]c2cc(C(=O)NC3CCCc4ccccc43)ccc21 (stereo not given)	0.7	0.677	6.0	-5.8	27.5	10.1%	0.1
Cc1noc(C)c1COC(=O)c1ccc(F)c(S(=O)(=O)N2CCCCC2)c1	-0.5	0.666	2.6	5.5	2.7	-2.2%	-1.5
CCCCC(=O)Nc1ccc(Cl)cn1	-0.6	0.675	1.6	0.8	5.6	-8.3%	4.1
O=C1S/C(=C\C=C\c2ccco2)C(=O)N1c1ccccc1	0.0	/	4.9	/	-2.2	/	-0.8
COc1ccc(-c2csc(NC(=O)CSCC(=O)Nc3cc(C)on3)n2)c(OC)c1	0.7	0.67	0.4	4.3	3.2	-7.9%	2.0
Cc1cccnc1NC(=O)CCC(=O)c1cccs1	0.9	0.665	8.5	-0.1	6.3	2.0%	24.7*
CC(C)CCC1(CCO)C(=O)N=C(N)NC1=O (stereo not given)	/	0.684	-4.7	5.1	-2.4	-1.1%	/
CCN1CCN(c2nnc(-c3ccc(C)cc3)c3ccccc23)CC1	0.6	0.643	-8.1	2.1	-2.7	-6.5%	-0.7
CCC(C(=O)NC(C)(C)C)N(Cc1cccs1)C(=O)CNS(=O)(=O)c1ccccc1 (stereo not given)	-0.2	0.713	-2.9	2.8	-3.4	?	-2.9
Cn1c(SCC(=O)NC2CC2)nnc1-c1ccccc1Cl	0.9	/	-0.7	/	0.6	/	4.5
Cc1ccc(S(=O)(=O)N2CCC(c3nnc(SCCN4CCCC4)n3C)CC2)cc1	0.0	0.652	-3.6	1.7	2.7	/	-1.0
O=[N+]([O-])c1ccc(-[n+]2ccc3ccccc3c2)c([N+](=O)[O-])c1	-0.4	0.446*	0.6	2.7	47.3*	/	-4.6
CC(C)Oc1ccc(C(=O)Nc2ccc(C(F)(F)F)n(C)c2=O)cc1	-0.4	0.703	0.2	-1.6	0.0	/	9.5
CCSc1nnc2nc3[nH]c4c(C)cccc4c3nn12	0.8	0.677	3.4	5.7	-2.1	-4.3%	1.1
CCc1ccc(NS(=O)(=O)c2ccc(C)c(C(=O)N3CCOCC3)c2)cc1	-0.2	0.717	-6.0	4.0	21.1	-8.5%	2.9
O=C1NCCCC1C(=O)N/N=C/c1ccccc1[N+](=O)[O-] (stereo not given)	0.8	/	1.5	/	-4.3	1.5%	2.8
[O-][n+]1cccc2ncc3cscc3c21	-0.8	0.698	5.0	-5.4	1.5	0.0%	4.8
COc1ccc(S(=O)(=O)N2CCC(C(=O)NC3CC3)CC2)cc1Cl	-0.3	0.743	-2.5	0.3	-0.5	11.8%	-3.9
CCOC(=O)c1cnc2c(C)cc(Cl)cc2c1NCCCN1CCOCC1	0.2	0.685	-1.7	-1.4	10.5	/	2.6
Cc1c(Cl)cccc1NC(=S)N=Nc1c(O)n(CN2CCOCC2)c2ccccc12	-0.4	/	3.5	/	5.1	/	1.0
O=C(NC1CCN(Cc2ccccc2)CC1)c1ccccc1F	2.1	0.652	-0.2	0.4	8.8	17.4%	1.2
O=C1c2ccsc2SCCN1Cc1ccc(Cl)cc1	-0.1	0.758	-0.8	0.8	-1.4	22.9%	6.0
CCCCCOC(=O)CSc1nc2c(c(=O)[nH]c(=O)n2C)n1CCc1ccccc1	0.0	0.756	2.2	1.6	-0.9	-5.2%	-4.3
Cn1cccc1C(=O)NNC(=O)COc1ccc(C#N)cc1	0.0	0.678	-2.5	6.9	-2.0	-2.2%	0.0
O=C(O)CC/C(=N\Nc1ccc(Cl)cc1)c1cccs1	0.1	/	4.6	/	-328.6	-1.6%	3.4
CC(=O)Nc1nc(CCN2C(=O)c3ccccc3C2=O)cs1	2.3	0.708	-0.8	3.8	-9.0	?	-3.5
Cc1ccc(S(=O)(=O)NCC(=O)N(CC(=O)NC2CCCCC2)CC2CCCO2)cc1 (stereo not given)	-0.4	0.717	0.2	-1.0	12.7	3.9%	-2.0
COC(=O)c1ccc(NC(=O)Cc2ccc(F)cc2)cc1	-2.6	0.643	2.9	2.7	1.6	-3.4%	8.3
CC(=O)C(=Nc1cccc(Cl)c1)NNc1ccccc1C	0.2	0.603	-0.8	3.7	-0.5	/	0.2
CC(O)c1nc2ccccc2n1CC(=O)N1CCN(c2ccccc2)CC1 (stereo not given)	0.0	0.703	5.8	3.7	3.0	4.3%	3.7
Nn1cnc2cc3ccccc3cc2c1=O	0.1	0.678	-2.5	-5.4	2.1	-6.8%	2.6
CCOc1ccc(C(CC(=O)O)NC(=O)COc2ccccc2OC)cc1OC (stereo not given)	0.3	0.676	7.2	0.7	-0.6	8.7%	0.9
O=C1Nc2ccc(Br)cc2C12NNc1ccccc1O2 (stereo not given)	0.3	0.432*	95.0	-0.6	-400.4	8.4%	-9.0
COC(=O)C(Cc1ccc(O)cc1)NC(=O)c1ccccc1 (stereo not given)	-0.3	0.694	-0.5	3.7	11.5	-1.2%	2.2
CC(=O)c1cccc(NC(=O)NNC(=O)c2ccc(-c3ccccc3)cc2)c1	0.5	0.654	-2.2	-0.6	-0.5	/	-3.8
Cc1nn(C(C)c2nc(-c3ccccc3)no2)c(C)c1[N+](=O)[O-] (stereo not given)	0.2	0.695	1.0	0.9	-1.2	-2.9%	5.4
Cc1ccc(N(C)C(=O)N2CCN(S(=O)(=O)c3ccc(C)c(C)c3)CC2)cc1	2.2	0.65	0.8	4.6	-0.4	0.5%	9.0
O=C(COc1ccccc1F)Nc1cc(S(=O)(=O)N2CCOCC2)ccc1N1CCOCC1	0.4	0.684	1.5	-1.6	-12.1	21.4%	4.8
Cc1[nH]c2ccccc2c1C(=O)C(=O)Nc1ccc2c(c1)OCCO2	-3.4	0.718	4.9	6.6	-0.1	-6.0%	4.1
Cc1ccc(NC(=O)c2cc(-c3cc(Cl)ccc3O)n[nH]2)cc1C	2.2	0.693	0.6	4.3	-0.9	-11.0%	-0.3
CCCCN(C)C(=O)C1CCN(Cc2ccc(OCc3ccccc3)cc2)CC1	0.8	0.648	0.7	2.3	-7.5	7.7%	-1.5
Cn1c(=O)n(C/C=C/c2ccccc2)c(=O)c2c1nc1n2CCCN1Cc1ccccc1	0.4	0.742	4.7	2.5	-2.9	2.6%	5.3
COc1ccc(N2CC(C(=O)Nc3cccnc3)CC2=O)cc1 (stereo not given)	1.9	0.637	-1.6	-3.2	-3.1	/	-0.2
C=CCOc1ccc(Br)cc1CNCC	-0.8	0.711	4.8	2.9	11.2	8.2%	5.5
Cn1c(SCC(=O)NC2CCCCC2)nnc1-c1ccccn1	-1.0	0.698	7.8	-0.2	-6.3	/	2.4
O=C(CSc1n[nH]c(=O)n1-c1ccccc1)N1CCOCC1	1.4	0.705	1.1	1.6	-1.2	7.5%	4.2
COc1ccccc1-c1nnc(NC(=O)C(C)C)s1	0.9	0.762	-0.3	-2.3	-3.4	14.0%	0.6
Cc1ccc(S(=O)(=O)NCC(c2cccnc2)N(C)C)cc1 (stereo not given)	-0.1	0.701	0.1	1.3	-0.5	5.2%	-1.8
COc1ccc(N2CCN(C(=O)CN(Cc3ccc(Cl)cc3)S(C)(=O)=O)CC2)cc1	-1.1	0.732	3.5	2.7	-3.7	10.6%	-1.0
COc1cc(OC)cc(N2CC(C)(C)C2=O)c1	0.9	0.672	-0.2	0.0	-1.1	-2.4%	-6.5
Nc1cc(N)nc(CS)n1	-0.7	0.673	0.3	-0.5	-2.5	?	0.6
O=C(CCCCCNC(=O)N1CCn2c1nc1ccccc12)N[C@H](Cc1ccccc1)C(=O)O	0.6	0.69	3.0	1.2	0.2	/	3.1
CCC(C)N1CC(=O)N2C(c3ccc(OC)cc3OC)c3[nH]c4ccccc4c3C[C@H]2C1=O (stereo not given in full)	0.1	0.649	-2.1	4.2	3.2	4.0%	-3.6
Cc1ccc(C)c(NC(=O)C(Sc2ncnc3ccccc23)c2ccccc2)c1 (stereo not given)	0.5	0.716	-1.2	1.1	-6.9	/	/
COc1ccc(NC(=S)NCc2ccc(S(N)(=O)=O)cc2)c(OC)c1	0.0	0.698	-2.7	-0.4	2.0	/	4.1
O=C(NCCc1ccccn1)c1ccc(OC2CCN(CCc3ccccc3)CC2)cc1	-1.9	0.654	1.3	0.6	-8.4	/	1.8
C=C(C)CSc1nc2nc(C)c(Br)cc2[nH]1	-3.0	0.641	5.3	5.9	-5.2	-1.6%	-2.4

Other entries:
SMILES	A1 inh	Ecoli growth	HNF4A DNA FP	UCH37 inh	B2AR ag	Vif TR-FRET	LANA-H2A inh
O=[N+]([O-])c1ccc(/C=N/n2cn[nH]c2=S)cc1	-0.6	/	1.7	/	6.0	0.8%	5.8
C=C(C)Cn1c(SCC)nc2ccccc2c1=O	1.5	0.688	0.0	5.4	-7.0	-7.5%	-5.4
O=C(O)c1cc(-c2ccccc2)n[nH]1	1.1	0.68	-4.0	2.4	4.8	22.5%	-0.3
O=C(Cc1ccccc1)NC(=S)Nc1cccc(C(F)(F)F)c1	-0.2	0.722	2.4	5.0	-3.4	1.8%	-0.1
CCOC(=O)c1c(CN2CCCCC2)n(C)c2ccc(OC)c(S(=O)(=O)c3ccccc3)c12	1.2	0.789	3.9	0.4	3.2	3.4%&-5.3%	-4.5
O=C1CCN(Cc2ccc(O)cc2)CCN1[C@H](CO)Cc1ccccc1	-0.1	/	3.8	2.9	-2.1	/	2.2
O=S(=O)(c1ccc2c(c1)OCCO2)N1CCNCC1	0.4	0.776	-1.2	7.7	4.8	/	1.5
O=C(CSc1ncccn1)NCC1CCCO1 (stereo not given)	1.0	0.724	-1.2	-0.8	2.1	-1.8%	3.7
O=C(Nc1ccc(N2CCN(C(=O)c3ccccc3)CC2)cc1)c1cccs1	0.0	0.682	-1.5	-0.2	-10.2	/	0.6
Cc1ccccc1NC(=O)Cc1nc(COC(=O)CC(C)c2ccccc2)cs1 (stereo not given)	/	0.672	2.6	3.0	-2.6	5.2%	/
CC(C)(C)C(=O)NC1(C(F)(F)F)NC(=O)N(CCc2ccccc2)C1=O (stereo not given)	1.0	0.717	0.9	-0.8	-0.8	-4.7%	-1.2
Nc1c(C(=O)NCc2cccs2)nnn1CC(=O)Nc1cccc(Cl)c1	-0.6	0.719	-1.1	-0.5	-5.3	-5.9%	-3.7
COc1ccccc1C(=O)NC(CCSC)C(=O)NCc1ccncc1 (stereo not given)	-0.4	0.634	-3.3	1.4	-1.1	-16.7%	1.1
COc1ccc2ncc(S(=O)(=O)c3ccccc3)c(N3CCN(c4ccccc4)CC3)c2c1	1.2	0.753	0.1	3.0	0.2	-2.6%	-0.1
CCCOc1ccc(-c2c(C(=O)N/N=C/c3ccncc3)nnn2-c2nonc2N)cc1	-0.1	/	-2.5	/	-9.3	/	-1.7
CCCCCN(C(=O)NC(=O)Nn1cnnc1)S(C)(=O)=O	0.3	0.686	2.5	2.1	34.2	11.0%	1.0
N#Cc1ccc(OCC(=O)OCC(=O)Nc2ccc(N3CCOCC3)cc2)cc1	-0.5	0.622	0.8	0.9	-2.9	-3.6%	6.9

Rows were taken by chance. Share with any hit: about 2.1%.
